VACV Venus inh: qHTS for Stage-Specific Inhibitors of Vaccinia Orthopoxvirus: Venus Reporter Primary qHTS; Vaccinia virus Venus reporter expression, fluorescence; Potency, µM (highest dose often 36.5 µM), without a hit: at the top dose activity change, negative = inhibition, usual class: inhibitors; 330,000 tested, 0.46% active; active means well fitted inhibition curve with a large enough effect; inconclusive means small, poorly fitted or top-dose-only effect; inactive means no such curve, though single readings can be large or run the other way; tested in A549 cells; also: nearly all actives have a fitted effect of over 30% in size; inactives centre near -10
VACV mCherry inh: qHTS for Stage-Specific Inhibitors of Vaccinia Orthopoxvirus: mCherry Reporter Primary qHTS | AID 720579, 2013 | Potency, µM (top dose mostly 36.5 µM), without a hit: at the highest dose activity change, negative = inhibition, usual class: inhibitors | Vaccinia virus mCherry reporter infection, fluorescence; about a quarter of the inactives have no number | 310,000 tested, 0.63% active; active = well fitted inhibition curve with a large enough effect; inconclusive = small, poorly fitted or top-dose-only effect; inactive = no such curve, though single readings can be large or run the other way; tested in A549 cells; also: nearly all actives have a fitted effect of over 35% in size; inactives centre near -10
Starred values were filed as active, the others as inactive; i = inactive; ? = inconclusive; . = not tested or not shown; [ ] = remark or other dose. % is scaled to controls: 0 for no effect and ±100 for the full control effect; potency is read from the fitted curve at half-maximal effect.

SMILES | VACV Venus inh | VACV mCherry inh
CS(=O)(=O)Oc1ccc2c(c1)O/C(=C\c1cccnc1)C2=O | -9.8% | i
CCN(c1ccccc1)S(=O)(=O)c1cc(C(=O)Oc2ccc3c(C)cc(=O)oc3c2)ccc1C | -2.0% | i
O=C(NCc1ccccc1)C1=C[C@H](c2ccccc2)C[C@H](OCc2ccc(CO)cc2)O1 | -20.4% | -13.4%
O=C(O)C1CCCCC1C(=O)Nc1ccccc1F (configuration not stated) | -8.4% | i
Brc1ccc(-c2csc(N/N=C/c3ccc4c(c3)OCO4)n2)cc1 | -22.7% | -28.0%
Cc1cccc(NC(=S)NC(=O)C(c2ccccc2)c2ccccc2)n1 | ? | -7.6%
CC(C)N(C(=O)Cn1cc(SCC(=O)NCC2CCCO2)c2ccccc21)C(C)C (configuration not stated) | -9.6% | -5.4%
Cc1ccc(NC(=O)CNC(=O)COc2ccccc2)nc1 | -11.1% | -1.8%
CCCCCCCCOc1ccc(C2OC34CCCCC3C(C#N)(C#N)C2(C#N)C(=N)O4)cc1 (configuration not stated) | 25.8% | 1.3%
CCN(CC(=O)Nc1cc(Cl)ccc1C)C(=O)CCS(=O)(=O)c1ccc(C)cc1 | ? | ?
CC(C)(C)C(=O)Nc1ccc(C(=O)N/N=C/c2ccccc2OC(=O)c2ccccc2)cc1 | ? | .
CC(C)(C)NC(=O)CCCCCCCC(=O)NC(C)(C)C | -18.5% | i
Cc1ccnc(NC(=O)C2CCN(S(=O)(=O)c3cccc4nsnc34)CC2)c1 | -16.9% | -26.6%
CCC(=O)NC1Cc2ccccc2C(c2ccccc2)C1 (configuration not stated) | -6.1% | -14.5%
C(=N\N1CCN(c2ccccn2)CC1)/c1cccc2ccccc12 | -4.0%[7.34 µM] | ?
CCS(=O)(=O)N1CCc2cc(C(=O)N3CCN(c4ccccc4)CC3)ccc21 | -7.4% | -19.6%
CCOc1ccc(-n2c(=O)c3c4c(sc3n(CC(=O)NC(C)CC)c2=O)CCCCC4)cc1 (configuration not stated) | -8.9% | -11.4%
Cc1cc(C)nc(Nc2nc3ccccc3o2)n1 | -10.7%[7.34 µM] | -18.1%[7.34 µM]
N#C/C(=C\c1ccc(O)cc1)C(=O)O (tested in a mixture with another compound) | -9.3% | i
O=S(=O)(N1CCCCC1)N1CCN(S(=O)(=O)N2CCCCC2)CC1 | -19.2% | .
Cc1ccc2nsnc2c1NC(=O)c1ccc2c(c1)OCCO2 | 0.0% | -12.2%
Cc1cc2oc(=O)cc(-c3ccccc3)c2c(C)c1-c1ccc(N(C)C)cc1 | -14.1% | -9.0%
Cc1cc(C)c(NC(=O)CSc2nnc(CNC(=O)c3ccccc3F)o2)c(C)c1 | -13.1% | i
O=C(O)C1CC=CCC1C(=O)Nc1cccc([N+](=O)[O-])c1 (configuration not stated) | 0.6% | i
COc1ccc2nc3oc(C(=O)N4CCCCC4)cc3cc2c1 | ? | -18.2%
Nc1ccccc1/C=C/c1ccnc2ccccc12 | ? | -29.4%
CCOc1ccc(Nc2nc3ccccc3n3c(CC)nnc23)cc1 | -11.2% | -11.3%
CS(=O)(=O)N1CCN(C(=O)CCc2ccccc2)CC1 | -4.7% | -14.2%
CCCC1CC(C(=O)Nc2ccccc2)C(=O)O1 (configuration not stated) | -15.6%[7.34 µM] | i[7.34 µM]
CCCSc1nc2c([nH]c3ccccc32)c(=O)n1C | -7.5% | -13.3%

Compound profiles, from the list above. Order of values: VACV Venus inh	VACV mCherry inh
`CCOc1ccc(Nc2nc3ccccc3n3c(CC)nnc23)cc1` reads -11.2%	-11.3%
`CCN(c1ccccc1)S(=O)(=O)c1cc(C(=O)Oc2ccc3c(C)cc(=O)oc3c2)ccc1C` reads -2.0%	i
`Cc1cc(C)c(NC(=O)CSc2nnc(CNC(=O)c3ccccc3F)o2)c(C)c1` reads -13.1%	i
`CCCSc1nc2c([nH]c3ccccc32)c(=O)n1C` reads -7.5%	-13.3%
`Nc1ccccc1/C=C/c1ccnc2ccccc12` reads ?	-29.4%

Additional compounds
SMILES | VACV Venus inh | VACV mCherry inh
CCC(C)c1ccc(NC(=S)NCc2cccs2)cc1 (configuration not stated) | -18.5% | i
COc1ccc(OC)c(CN2CCC(C(=O)N3CCOCC3)CC2)c1 | -20.7% | i
COc1ccccc1Cc1c(-c2ccco2)nc2c3ccccc3ccn12 | -1.6% | -6.4%
Cc1ccc(-c2nn3c(=O)cc(CN4CCN(C(=O)Nc5cc(Cl)ccc5C)CC4)nc3s2)cc1 | -4.5% | -10.4%
CSc1nc(N)nc2c1ncn2CC(=O)NCCCN1CCCC1=O | 4.7% | i
COc1cccc(/C=C2\SC(=S)N(N3CCOCC3)C2=O)c1OC | -7.8% | -15.1%
Cc1ccc(C(=O)NC(=S)NNC(=O)CC#N)cc1 | -2.8% | -9.2%
Cc1ccccc1NC(=O)CN1CCN(c2ccc(F)cc2)CC1 | -5.4% | i
O=C(NCc1ccc2c(c1)CCN2C(=O)c1ccccc1)Nc1cccc(C(F)(F)F)c1 | ? | ?
O=C(NCc1ccco1)C1CC(=O)N(c2ccc(F)cc2)C1 (configuration not stated) | -9.0% | -16.1%
CCC(CC)C(=O)Nc1nnc(SCC(=O)NC2CC2)s1 | -0.8% | -8.6%
COc1ccc(OC)c(CCNC(=O)c2csc3c2CCCCC3)c1 | 1.3% | -11.3%
CCOC(=O)c1cc2c(nc1NC(=S)NCc1ccccc1)CCCC2 | -15.6% | i
C/C(=C\CCC1(C)C2CC3C(C2)C31C)C(=O)O (configuration not stated) | 5.0% | -2.0%
CC1Cc2ccccc2N1C(=O)CSc1nnc(-c2ccccc2Cl)o1 (configuration not stated) | -5.9% | 3.9%
CCn1c(SCC(=O)NC2CCCC2)nnc1-c1ccncc1 | 4.3% | -12.2%
CCC(C)n1c(SCC(=O)NC2CC2)nc2ccccc2c1=O (configuration not stated) | -10.1% | -24.8%
CSc1ccc(CC2C(=O)Nc3ccccc32)cc1 (configuration not stated) | -11.9% | 2.2%
CC(C)(C)c1ccc(S(=O)(=O)/N=C2\C=C(NS(=O)(=O)c3ccccc3)C(=O)c3ccccc32)cc1 | 6.9% | i
Cc1ccc(CNCC(=O)Nc2ccc(N3CCOCC3)cc2)cc1 | -8.5% | -19.1%

3 structures out of the list, arranged by number of heavy atoms, smallest number first.
SMILES | VACV Venus inh | VACV mCherry inh
CSc1ccc(CC2C(=O)Nc3ccccc32)cc1 (configuration not stated) | -11.9% | 2.2%
Cc1ccc(CNCC(=O)Nc2ccc(N3CCOCC3)cc2)cc1 | -8.5% | -19.1%
CC(C)(C)c1ccc(S(=O)(=O)/N=C2\C=C(NS(=O)(=O)c3ccccc3)C(=O)c3ccccc32)cc1 | 6.9% | i

(more compounds)
SMILES | VACV Venus inh | VACV mCherry inh
CCOc1ccc2nc(NC(=O)c3ccoc3C)sc2c1 | -20.7% | -16.4%[1.46 µM]
O=C(Nc1ncn[nH]1)c1ccc(Cl)cc1Cl | -6.5% | -10.3%
COc1ccc(C2=NS(=O)(=O)N(C)C(C(=O)Nc3ccc(OC)c(OC)c3)=C2)cc1 | -9.3% | i
CN(C)C(CNc1ccc([N+](=O)[O-])cc1C#N)c1ccccc1 (configuration not stated) | -0.9% | -6.8%
O=C(OCC(=O)N1CCN(C(=O)c2ccco2)CC1)c1cn(-c2ccccc2)nc1-c1ccccc1 | ? | .
CC1=CC=CC2=NC(=O)CC(C)(C(=O)O)N12 (configuration not stated) | -2.4% | -4.2%
CCCn1cnc2c(oc3ccccc32)c1=O | -6.4% | -9.6%
O=C(/C=C/c1ccccc1Cl)c1ccc[nH]1 | ? | 12.6µM*
CCc1cccc(CC)c1NC(=S)NCc1ccc2[nH]c(C)cc2c1 | -22.2% | ?
COc1ccc(C(=O)NCCSc2ccccc2)cc1 | -7.8% | i

Part of the list above in another layout:
O=C(/C=C/c1ccccc1Cl)c1ccc[nH]1
  VACV Venus inh = ?
  VACV mCherry inh = 12.6µM*

CCc1cccc(CC)c1NC(=S)NCc1ccc2[nH]c(C)cc2c1
  VACV Venus inh = -22.2%
  VACV mCherry inh = ?

The main list resumes; the six compounds before the break are reprinted first.
SMILES | VACV Venus inh | VACV mCherry inh
O=C(OCC(=O)N1CCN(C(=O)c2ccco2)CC1)c1cn(-c2ccccc2)nc1-c1ccccc1 | ? | .
CC1=CC=CC2=NC(=O)CC(C)(C(=O)O)N12 (configuration not stated) | -2.4% | -4.2%
CCCn1cnc2c(oc3ccccc32)c1=O | -6.4% | -9.6%
O=C(/C=C/c1ccccc1Cl)c1ccc[nH]1 | ? | 12.6µM*
CCc1cccc(CC)c1NC(=S)NCc1ccc2[nH]c(C)cc2c1 | -22.2% | ?
COc1ccc(C(=O)NCCSc2ccccc2)cc1 | -7.8% | i
Cc1ccc(NC(=O)CCc2nc3ccccc3s2)c(O)c1 | -15.2% | ?
CCCCC(=O)N/N=C(\C)c1cccc(NC(=O)C2CC2)c1 | 0.0% | -2.6%
COCCCNC(=O)c1sc2nc(C)c(C(=O)Nc3ccc(C)cc3C)c(-c3ccc(Cl)cc3)c2c1N | -2.4% | 7.1%
COc1ccc(C2C(=O)N(C3CCCCC3)CC(=O)N2C2CCCC2)cc1 (configuration not stated) | -7.0% | -8.6%
COc1cccc(/C=N/Nc2nc(C)cc(=O)[nH]2)c1OC | -7.3% | -13.2%
Cc1ccc2c(c1)N(CC(=O)NCCC1=CCCCC1)C(=O)c1cccnc1O2 | -12.9% | -13.6%
COc1ccc([C@H]2CC(=O)C=C(c3ccc(OC(F)(F)F)cc3)C2)cc1OC | ? | ?
Cc1ccc(S(=O)(=O)CCC(=O)OCC(=O)NCC(=O)Nc2c(C)cc(C)cc2C)cc1 | -14.9% | i
S=C(Nc1cccnc1)N1CCN(c2ccccc2Cl)CC1 | -7.9% | -13.1%
COC(=O)C1CCCCN1Cc1ccc2c(c1)CN(Cc1cc(OC)c3c(c1)OCO3)CCO2 (configuration not stated) | -4.7% | -10.3%
Cc1cc(N2CCN(C)CC2)nc2ccc(NC(=S)N3CCN(c4ccc(Cl)cc4)CC3)cc12 | -14.0% | ?
N/C(=N\OC(=O)Cc1ccccc1[N+](=O)[O-])c1cccnc1 | 1.3% | 2.0%
CC(C)(C)N/N=C/c1cc(Cl)cc([N+](=O)[O-])c1O | -4.0% | -13.2%
CC1CN(C(=O)N2CCCCC2)CCN1C(=O)N1CCCCC1 (configuration not stated) | -16.1% | i
Cc1nn(CC(=O)Nc2ccccn2)c(C)c1[N+](=O)[O-] | -6.1% | -15.7%
Cc1cccc(NC(=O)c2cc(-c3ccc4c(c3)OCCO4)on2)c1 | -14.0% | -6.2%
CCOC(=O)Cn1nc(C)n(-c2ccc(Br)cc2)c1=O | 3.6% | i
CNc1ccc(-c2cccc([N+](=O)[O-])c2)cn1 | -1.7% | 4.5%
COc1ccccc1N1CCN(C(=O)/C=C/c2ccccc2)CC1 | -10.0% | -13.0%
COc1cccc(/C=C/C(=O)N2CCN(S(=O)(=O)c3ccccc3)CC2)c1 | -26.6% | i
COc1ccc(NC(=O)CNC(=O)Cc2cccc3ccccc23)c(OC)c1 | -7.3% | -2.0%
CC(C)OCCCNC(=O)NC(=O)c1ccc(Cl)cc1 | -15.8% | i
Cn1c(CN2CCOCC2)nnc1SCc1ccccc1 | -2.5% | -11.5%
COc1ccc(N2CCN(C(CNC(=O)C(=O)NCc3ccc(C)cc3)c3cccnc3)CC2)cc1 (configuration not stated) | -24.4% | ?
CCN(CC(=O)Nc1ccccc1C(F)(F)F)C(=O)C1CSC2(C)CCC(=O)N12 (configuration not stated) | 1.0% | -7.9%
COc1ccc(C2/C(=C(/O)c3ccc4c(c3)CC(C)O4)C(=O)C(=O)N2Cc2ccncc2)cc1 (configuration not stated) | -9.5% | i
Cc1ccc(CCNC(=O)C23CN(Cc4ccccc4)CC2C(c2cccc([N+](=O)[O-])c2)=NO3)cc1 (configuration not stated) | -21.4% | -20.9%
Cc1c(-c2nnc(SCC(=O)O)n2-c2ccccc2Br)nnn1-c1ccccc1 | -5.9% | -11.7%
COc1ccc2c(c1)C=CC1(O2)N(CCO)c2ccccc2C1(C)C (configuration not stated) | 94.2%[activator] | 57.7%[activator]
O=C(COC(=O)C1CC2CCCC(C1)C2=O)NNC(=O)c1ccccc1F (configuration not stated) | -4.2% | -12.3%
CC(=O)NCCC(=O)Nc1nc(-c2cccs2)c(-c2cccs2)s1 | -11.7% | i
Cc1ccc2c(c1)C(c1ccccc1)N(C(=O)c1ccccc1F)CC(=O)N2 (configuration not stated) | -13.6% | -11.2%
